FGF22 binding: binders of human FGF22 protein, primary screen, FGF22 synaptogenesis inhibitor project, biophysical, thermal shift, single point; recombinant FGF22 thermal shift, SYPRO orange fluorescence; percent of sucrose octasulfate shift, DMSO zero; AID 651658, 2012; calls only at 9.99 µM; hit rate 1.5% among 340,000; Fibroblast growth factor 22 (Homo sapiens), Q9HCT0;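 active means melting point raised past a set limit in the mean and every replicate; inconclusive means no clear call; three in four hits are not shown here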
Target sequence (Q9HCT0 whole entry, looked up): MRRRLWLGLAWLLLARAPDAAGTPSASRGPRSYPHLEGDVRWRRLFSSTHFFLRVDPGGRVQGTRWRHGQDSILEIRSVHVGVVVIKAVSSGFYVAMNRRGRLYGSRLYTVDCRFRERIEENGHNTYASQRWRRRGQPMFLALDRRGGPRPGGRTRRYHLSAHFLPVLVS
AF4-AF9 inh: inhibitors of AF4 peptide binding to AF9, primary screen, biochemical, AlphaScreen, biotin-AF4 peptide, FLAG-AF9, single point; Protein AF-9 (Homo sapiens), P42568; hit rate 0.47% among 350,000; inhibition, % at 10 µM;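 active means every replicate reaching a set inhibition limit, whatever the replicate mean, cut at about 25% in these data; inconclusive means mean inhibition reaches that limit but some replicates miss it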;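 further: 0% = plate neutral control median and 100% = total signal loss; the record names both 10 and 1 µM as test concentration; the first replicate is given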
ALR inh: inhibitors of human ALR sulfhydryl oxidase, primary screen, biochemical, H2O2 detection, HRP-luminol luminescence, single point | FAD-linked sulfhydryl oxidase ALR (Homo sapiens), P55789 | purified ALR, DTT oxidation | inhibition, % (no concentration beside the values) | hit rate 3.8% among 290,000;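 active means mean and each replicate at 75% or more; inconclusive means only one of the two met; inactive means neither met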;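 further: stock transfer was 7.5 nL into about 7.5 µL; 0% = neutral wells and 100% = wells with inactivated enzyme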
Target sequence (P55789 whole entry, looked up): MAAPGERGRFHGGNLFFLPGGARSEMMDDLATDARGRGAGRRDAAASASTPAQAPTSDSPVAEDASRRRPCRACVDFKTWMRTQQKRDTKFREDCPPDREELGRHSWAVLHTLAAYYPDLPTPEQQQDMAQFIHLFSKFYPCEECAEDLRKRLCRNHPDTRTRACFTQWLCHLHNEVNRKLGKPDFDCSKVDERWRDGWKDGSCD
HNF4A DNA FP: change in binding of human HNF4A to DNA, primary screen, biochemical, fluorescence polarization, FITC-DNA. Hepatocyte nuclear factor 4-alpha (Homo sapiens), P41235. 1 h. activity change, % at 10 µM. hit rate 0.3% among 360,000. AID 1224865, 2016; in the data active means activity change above about 30%, passing the limit was not always enough;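 further: controls were the assay level and a saturating level of protein; the project sought stronger binding though the title names inhibitors; some compounds called inactive have numbers as strong as hits; positive values seem to mean higher polarization but the record does not say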
Target sequence (P41235 whole entry, looked up): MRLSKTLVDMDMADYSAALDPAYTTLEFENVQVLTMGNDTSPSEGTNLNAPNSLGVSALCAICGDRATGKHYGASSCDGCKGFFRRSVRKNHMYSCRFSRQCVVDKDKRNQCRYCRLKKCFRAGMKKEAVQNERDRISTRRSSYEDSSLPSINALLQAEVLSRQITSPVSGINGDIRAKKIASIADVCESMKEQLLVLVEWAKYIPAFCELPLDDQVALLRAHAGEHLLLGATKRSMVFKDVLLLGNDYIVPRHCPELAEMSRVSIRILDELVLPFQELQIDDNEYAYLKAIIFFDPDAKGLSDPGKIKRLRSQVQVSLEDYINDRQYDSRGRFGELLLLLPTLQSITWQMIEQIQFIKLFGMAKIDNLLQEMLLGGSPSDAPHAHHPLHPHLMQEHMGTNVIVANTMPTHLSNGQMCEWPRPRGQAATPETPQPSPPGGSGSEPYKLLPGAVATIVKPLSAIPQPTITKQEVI
E coli growth: E. coli growth inhibition, primary screen, OD600; Escherichia coli growth, 23 h; hits give low values; OD600 absorbance (test concentration not listed); hit rate 0.21% among 330,000;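 active means OD600 absorbance below the run mean of sample wells minus 3.6 SD, in any replicate, cut at about 0.56 in these data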;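 further: stock transfer was 300 nL into about 60 µL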
rRNA inh HTS: reduced GFP signal of wild-type E. coli, primary screen, bacterial rRNA inhibitor project, GFP/RFP fluorescence, OD600, single point; E. coli WT GFP vs humanized-ribosome RFP mutants, 24 h; hits give low values; DMSO median 0, no signal -100; GFP signal change (wild-type ribosome), % (test concentration not listed); hit rate 1.6% among 350,000;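 active means significant combined selectivity score with lowered wild-type GFP, culture density cut under 30%, mutant RFP and density less affected; inactive means any of these conditions unmet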; further: one replicate is shown; some compounds called inactive have numbers as strong as hits
Vif A3G: inhibitors of Vif binding to APOBEC3G peptide, primary screen, biochemical, TR-FRET, GST-Vif 1-94, biotin-A3G peptide, dose response retest (AID 1117319); Virion infectivity factor (Human immunodeficiency virus type 1 group M subtype B (isolate …; TR-FRET GST-Vif / biotin-A3G peptide binding; higher % means a stronger effect; test concentration not given here; strong numbers were not always called active; one-dose inhibition, %; IC50 in µM for titrated hits; hit rate 0.57% among 260,000;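 active means above the screen mean plus three standard deviations and confirmed in dose response; inconclusive means results disagree or hit not tested in dose response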;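 further: Vif residues 1-94 fused to GST binding biotinylated APOBEC3G peptide 110-148; 0% = full assay without inhibitor and 100% = GST in place of GST-Vif; retest series ran down from 100 µM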
rRNA inh HTS OD600: recorded beside rRNA inh HTS, whose call it bears; OD600 change, %; measured here: OD600 growth;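 optical density of the mix in the first replicate; 0 = DMSO median and -100 = no signal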
rRNA inh HTS RFP: further read-out of rRNA inh HTS, marked with its call; RFP signal change, %; measured here: RFP humanized mutant strains;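 first replicate; 0 = DMSO median and -100 = no signal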
Active calls of the source: *; i = inactive; ? = inconclusive; · = no result given. A portion of the library; count on the stated rates, not on these rows.

SMILES	FGF22 binding	AF4-AF9 inh	ALR inh	HNF4A DNA FP	E coli growth	rRNA inh HTS	rRNA inh HTS OD600	rRNA inh HTS RFP	Vif A3G
C[C@H](CO)N1C[C@H](C)[C@H](CN(C)S(=O)(=O)c2cn(C)cn2)Oc2ccc(NC(=O)Nc3ccc4c(c3)OCO4)cc2C1=O	i	-1.4	·	·	·	-2	6	-1.2	·
CC(NC(=O)CN1CCCC1)C12CC3CC(CC(C3)C1)C2 (stereo not drawn)	·	·	-1	8.6	0.65	·	·	·	1%
COc1cc2c(cc1NC(=O)CCCN1C(=O)CCC1=O)oc1ccccc12	·	·	-14	-0.3	0.73	·	·	·	1%
COc1cccc(S(=O)(=O)N2CCCCN3[C@H](CO)[C@@H](c4ccc(C#CCC(C)C)cc4)[C@@H]3C2)c1	i	-2.9	·	·	·	-4	2	0.8	·
O/N=C(\C[n+]1ccccc1)c1ccc(Br)cc1	i	-2.4	23	-0.8	·	13	14	-0.2	-8%
COC(=O)C1(c2ccccc2)NC(c2cccs2)C2C(=O)N(C)C(=O)C21 (stereo not drawn)	·	·	·	3.9	0.7	·	·	·	2%
O=C(C[C@@H]1CC[C@H]2[C@@H](COC[C@@H](O)CN2C(=O)Nc2ccc(Cl)cc2)O1)N1CCCCC1	i	0.8	·	·	·	-25	-21	1.3	·
CC(=O)c1cccc(Nc2nc(-c3cccc([N+](=O)[O-])c3)cs2)c1	·	·	-4	2.0	·	·	·	·	4%
CCCOc1ccc(CC(CC(=O)O)(C(=O)O)C(=O)O)cc1	·	·	-1	1.7	0.7	·	·	·	4%
COC(=O)[C@]12C[C@H](CC(=O)NCCCCc3ccccc3)C(=O)N(Cc3ccccc3)C1=C[C@H](C(C)(C)C)O[C@@H]2C	i	-2.6	·	·	·	6	-5	-1.3	·
CC1(C)CC(NC(=O)c2ccccc2)CC(C)(C)N1	i	-2.4	·	-4.2	0.61	0	6	-0.3	·
COC(=O)c1cc(-c2ccc(Cl)cc2Cl)n[nH]1	i	-3.9	0	2.6	0.67	-23	-25	1.1	·
CC1(C(=O)Nc2ccc3c(c2)OCCO3)CCN1Cc1ccc2ccccc2c1 (stereo not drawn)	i	-2.1	·	-1.1	·	-68	-77	-27	·
CCCCCC(=O)NC(=S)Nc1ccc(Cl)cn1	i	-1.8	-2	3.6	0.73	-10	-4	-2.5	·
O/N=C/c1ccccc1OCc1ccccc1Cl	·	·	1	0.3	·	·	·	·	4%
Cc1ccccc1N(CC(=O)NCCc1ccccc1)C(=O)CCC(=O)Nc1ccccn1	i	-1.4	0	2.3	0.68	-1	-22	1.8	·
CNC(=O)c1cc2c(=O)n3cccc(C)c3nc2n(C(C)C)c1=N	·	·	-6	2.7	0.66	·	·	·	-3%
Cc1ccc(NS(=O)(=O)c2cccs2)cc1S(=O)(=O)N1CCCCCC1	i	1.1	-5	-6.2	0.7	-43	-58	-0.7	7%
COc1ccc(NS(=O)(=O)CC23CCC(CC2=O)C3(C)C)cc1 (stereo not drawn)	·	·	-1	5.6	0.7	·	·	·	0%
CCOc1ccc(C(=O)COC(=O)C2CCN(c3ccc(C(F)(F)F)cn3)CC2)cc1	i	-1.4	4	3.2	0.63	-9	0	-0.8	-11%
Cc1ccc(OCC(=O)Nc2ccncc2)c(C)c1	i	-2.7	4	2.4	·	-12	-11	-3.0	?
CCOc1ccc(NC(=O)CSc2nnc(CCNC(=O)c3ccc(OC)cc3)n2C)cc1	i	-7.6	-10	-3.5	0.67	2	2	-1.2	4%
COc1ccccc1-c1nc2ccc(Cl)cc2c(=O)n1O	i	-0.6	0	-3.1	0.66	-1	-7	0.5	5%
CCOC(=O)N1CCC(N(C(=O)Nc2ccccc2)C(C)CC)CC1 (stereo not drawn)	·	·	-2	-2.4	0.67	·	·	·	-4%
CCn1nc(C(=O)Nc2ccc(S(=O)(=O)Nc3nccs3)cc2)c2ccccc2c1=O	·	·	-22	-1.5	0.69	·	·	·	7%

Two compounds picked at random from those above:
SMILES	FGF22 binding	AF4-AF9 inh	ALR inh	HNF4A DNA FP	E coli growth	rRNA inh HTS	rRNA inh HTS OD600	rRNA inh HTS RFP	Vif A3G
CNC(=O)c1cc2c(=O)n3cccc(C)c3nc2n(C(C)C)c1=N	·	·	-6	2.7	0.66	·	·	·	-3%
CC1(C(=O)Nc2ccc3c(c2)OCCO3)CCN1Cc1ccc2ccccc2c1 (stereo not drawn)	i	-2.1	·	-1.1	·	-68	-77	-27	·

The results go on.
SMILES	FGF22 binding	AF4-AF9 inh	ALR inh	HNF4A DNA FP	E coli growth	rRNA inh HTS	rRNA inh HTS OD600	rRNA inh HTS RFP	Vif A3G
O=C(NN1CCOCC1)c1ccccc1Br	i	4.6	2	-3.6	0.67	18	14	1.4	·
O=C(NN1C(=O)c2ccccc2NC1c1cccnc1)c1ccc([N+](=O)[O-])cc1 (stereo not drawn)	i	-4.1	-8	-3.0	0.72	12	3	-2.1	22%
C[C@H](CO)N1C[C@H](C)[C@H](CN(C)S(=O)(=O)c2cn(C)cn2)Oc2ccc(NS(=O)(=O)c3ccccc3)cc2CC1=O	i	0.6	·	·	·	4	11	-0.1	·
CC(C)(C)c1ccc(S(=O)(=O)NCC2CCCO2)cc1 (stereo not drawn)	i	-2.0	-7	7.9	0.62	-10	-10	-0.6	·
Cc1ccc(S(=O)(=O)Nc2ccc3c(c2)C(=O)N([C@H](C)CO)C[C@@H](C)[C@@H](CN(C)C(=O)CCCN(C)C)OCCCC[C@@H](C)O3)cc1	i	3.1	·	·	·	-1	7	-0.6	·
CCc1cc(CNC(=O)C2CCC(=O)N(Cc3ccc(Cl)cc3)C2)on1 (stereo not drawn)	i	-1.7	0	1.8	0.62	3	8	-1.1	·
CCOc1ccc(CCNC(=O)C2CC(=O)N(C3CCCC3)C2)cc1OCC (stereo not drawn)	·	·	-10	3.4	0.69	·	·	·	27%
C[C@H](NC(=O)C[C@@H]1C[C@H]2c3cc(NC(=O)Cc4ccncc4)ccc3O[C@H]2[C@@H](CO)O1)c1ccccc1	i	1.1	·	·	·	4	10	0.0	·
Cn1c(N2CCN(S(=O)(=O)c3ccc(F)cc3)CC2)nc2ccccc21	i	0.8	0	5.5	0.64	-7	-13	-2.2	1%
Cc1nc(SCC(=O)Nc2cccc(Cl)c2)n[nH]1	·	·	-3	-1.6	0.74	-1	-1	-1.8	-2%
COc1ccc(NC(=O)c2cc(-c3ccccc3)nc3c2cnn3C(C)C)c(OC)c1	i	4.5	-2	3.0	0.69	·	·	·	-5%
COc1cc(OC)cc(C(=O)NCC(=O)OCC(=O)c2cc(C)n(Cc3ccco3)c2C)c1	i	3.4	3	-0.5	0.71	2	6	0.0	·
Cc1cccc(NC(=O)CCc2nnc3ccc(NCc4ccco4)nn23)n1	i	1.9	4	-2.6	0.7	2	-1	3.0	·
N=C1SC(c2ccccc2)C(=O)N1c1ncc(Cc2ccccc2)s1 (stereo not drawn)	i	?	35	-1.9	0.71	-53	-80	-28	-11%
O=C(CC1CC1)N1CC2(C1)[C@H](c1ccccc1)[C@@H](CO)N2C(=O)c1cccnc1	i	0.0	·	·	·	2	6	-1.7	·
NC(=NCc1ccco1)NC(=O)c1ccc(Cl)cc1	i	11	6	-3.5	0.59	-25*	-10*	0.9*	·
O=C(NCc1cccs1)C1CCCN1C(=O)Nc1cccc(Cl)c1 (stereo not drawn)	i	-0.6	-1	-2.6	0.67	3	6	0.6	?
C[C@H](CO)N1C[C@H](C)[C@@H](CN(C)C(=O)Cc2cccnc2)Oc2cc(C#Cc3ccccc3F)ccc2S1(=O)=O	i	-13	·	·	·	-6	-5	15	·
COCCNC(=O)C[C@@H]1C[C@H]2c3cc(NC(=O)c4ccc5c(c4)OCO5)ccc3O[C@H]2[C@H](CO)O1	i	-1.6	·	·	·	-2	6	-1.2	·
Cc1cccc(-n2c(SCC(=O)NCc3ccc4c(c3)OCO4)nc3ccccc3c2=O)c1	i	?	-11	2.6	0.72	10	1	-7.2	20%
O=C(N[C@@H]1CC[C@H](CCNS(=O)(=O)c2ccc(F)cc2)O[C@H]1CO)c1cccc(F)c1	i	-1.0	·	·	·	0	7	-4.3	·
CCc1ccc(N(CC(=O)NCc2cccnc2)S(=O)(=O)c2ccccc2)cc1	i	2.3	0	1.3	0.7	11	-6	-3.9	·
CCOC(=O)N1CCC(NC(=O)c2cc3cc4cc(OC)ccc4nc3o2)CC1	·	·	0	4.3	0.71	·	·	·	20%
CCOc1ccc(N2CC(C(=O)Nc3ccc(S(=O)(=O)NCC4CCCO4)cc3)CC2=O)cc1 (stereo not drawn)	i	0.3	2	6.6	0.7	4	6	0.0	·
CCCCC(C(=O)NC(C)(C)C)N(Cc1ccccc1Cl)C(=O)c1snc(C(N)=O)c1N (stereo not drawn)	i	3.9	·	-5.5	0.68	0	-4	-1.7	7%

The closing four compounds of the section before open the next one.
SMILES	FGF22 binding	AF4-AF9 inh	ALR inh	HNF4A DNA FP	E coli growth	rRNA inh HTS	rRNA inh HTS OD600	rRNA inh HTS RFP	Vif A3G
CCc1ccc(N(CC(=O)NCc2cccnc2)S(=O)(=O)c2ccccc2)cc1	i	2.3	0	1.3	0.7	11	-6	-3.9	·
CCOC(=O)N1CCC(NC(=O)c2cc3cc4cc(OC)ccc4nc3o2)CC1	·	·	0	4.3	0.71	·	·	·	20%
CCOc1ccc(N2CC(C(=O)Nc3ccc(S(=O)(=O)NCC4CCCO4)cc3)CC2=O)cc1 (stereo not drawn)	i	0.3	2	6.6	0.7	4	6	0.0	·
CCCCC(C(=O)NC(C)(C)C)N(Cc1ccccc1Cl)C(=O)c1snc(C(N)=O)c1N (stereo not drawn)	i	3.9	·	-5.5	0.68	0	-4	-1.7	7%
O=C(Cc1n[nH]c(=O)c2ccccc12)OCC(=O)c1ccc(OC(F)F)cc1OC(F)F	i	-1.7	0	2.1	0.7	-1	-4	3.7	2%
COC(=O)C1=C(C)OC(N)=C(C#N)C1c1ccsc1 (stereo not drawn)	·	·	·	-3.3	0.71	·	·	·	-1%
CC(C)C(C)NC(=O)COc1ncnc2ccccc12 (stereo not drawn)	·	·	·	-1.4	0.69	·	·	·	-5%
O=C(COC(=O)CSc1ccc(F)cc1)NNC(=O)c1ccc([N+](=O)[O-])cc1	i	-1.8	-9	0.4	0.64	7	5	-3.4	-5%
Cc1ccccc1S(=O)(=O)NCC[C@@H]1CC[C@@H](NC(=O)Nc2cccc(F)c2)[C@@H](CO)O1	i	0.8	·	·	·	-4	-7	3.7	·
COc1ccc2c(c1)CCN(C(=O)CCl)C2C1C(=O)CCCC1=O (stereo not drawn)	i	0.2	7	-12	0.7	-1	-1	-0.9	?
Cc1noc(C)c1-c1nc(CS(=O)(=O)c2ccc(Cl)cc2)no1	i	-0.1	·	-1.1	0.69	15	7	-1.7	2%
CC(=O)Oc1ccc(C(=O)Nc2ccc(S(=O)(=O)NCC3CCCO3)cc2)cc1 (stereo not drawn)	i	0.1	·	3.4	0.69	0	1	0.1	·
O=C(NCCCN1CCCCCC1)c1ccc(CS(=O)(=O)Cc2ccccc2F)o1	·	·	·	128	0.73	·	·	·	0%

Compound activity from PubChem BioAssay.
